Screens (PubChem BioAssay)
NPYLR7 ag = activates Aedes aegypti NPYLR7 receptor; HEK293T NPYLR7/Galpha15, GCaMP6s calcium fluorescence; hit rate 0.15% among 270,000; activation, % at 10 µM; in the data active = activation above about 40%;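 also: 0% = vehicle and 100% = reference agonist at the receptor; some compounds past the cut are filed as inactive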
NPYLR7 ag max-min = second read-out of NPYLR7 ag, no call of its own (marks repeat the call); activation, %; measured here: Max-Min RFU normalised activation; some inactives read as strong as hits;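 span of the calcium signal over five minutes; 0% = vehicle and 100% = native peptide agonist; compound fluorescence can raise it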
* = called active by the depositor; & = joins results of further samples.

Start of the listing, in advance (six entries):
SMILES	NPYLR7 ag	NPYLR7 ag max-min
Cc1ccc2oc(-c3ccc(NC(=O)C4CC4)c(C)c3)nc2c1	28.6	26.3
Cc1cc(C)c(CSCc2ccc(C(=O)N3C4CCC3CC(Oc3ccc5c(c3)OCO5)C4)cc2)c(C)c1 (stereo not drawn)	3.5	-6.4
CSc1nc(C(=O)N2CCN3C(=O)CN(C)C(=O)C3C2)cs1 (stereo not drawn)	-0.8	-1.7
CC(=O)c1ccc(NC(=O)c2cc(-c3ccc(C)c(C)c3)nc3ccccc23)cc1	0.3	2.5
CSc1ccc(NC(=O)C2(C)CCN2C(=O)C/C=C/c2ccccc2)cc1 (stereo not drawn)	9.7	12.9
CCOC(=O)CCC(=O)N1CCN(c2nc(-c3cccc(F)c3)nc(C)c2Cc2ccccc2)CC1	2.5	5.4

Main list (from the top)
SMILES	NPYLR7 ag	NPYLR7 ag max-min
Cc1ccc2oc(-c3ccc(NC(=O)C4CC4)c(C)c3)nc2c1	28.6	26.3
Cc1cc(C)c(CSCc2ccc(C(=O)N3C4CCC3CC(Oc3ccc5c(c3)OCO5)C4)cc2)c(C)c1 (stereo not drawn)	3.5	-6.4
CSc1nc(C(=O)N2CCN3C(=O)CN(C)C(=O)C3C2)cs1 (stereo not drawn)	-0.8	-1.7
CC(=O)c1ccc(NC(=O)c2cc(-c3ccc(C)c(C)c3)nc3ccccc23)cc1	0.3	2.5
CSc1ccc(NC(=O)C2(C)CCN2C(=O)C/C=C/c2ccccc2)cc1 (stereo not drawn)	9.7	12.9
CCOC(=O)CCC(=O)N1CCN(c2nc(-c3cccc(F)c3)nc(C)c2Cc2ccccc2)CC1	2.5	5.4
COC(=O)C1COCCN1C(=O)c1cccc(S(C)(=O)=O)c1 (stereo not drawn)	-0.9	-1.3
Cc1ccc(OCC(=O)NC2CCc3cnn(C(C)C)c3C2)cc1C (stereo not drawn)	20.6	12.7
Cc1cccc(-c2cnc(C)nc2C2CCCN(C(=O)c3c(F)cccc3F)C2)c1 (stereo not drawn)	13.3	7.2
COc1cc2nc(N3CCN(C(=O)C4CCCO4)CC3)nc(N)c2cc1OC (stereo not drawn)	-0.5&-10.1&0.8&-6.1	-4.4&-17.0&-18.0&-9.6

Retrieved by structure from the entries so far (2):
SMILES	NPYLR7 ag	NPYLR7 ag max-min
CC(=O)c1ccc(NC(=O)c2cc(-c3ccc(C)c(C)c3)nc3ccccc23)cc1	0.3	2.5
CSc1nc(C(=O)N2CCN3C(=O)CN(C)C(=O)C3C2)cs1 (stereo not drawn)	-0.8	-1.7

Carrying on.
SMILES	NPYLR7 ag	NPYLR7 ag max-min
O=C(N1CCCC(C(F)(F)F)C1)C12CC3CC(CC(C3)C1)C2 (stereo not drawn)	-7.2	-8.4
Cc1nn(C)c(C)c1-c1cc(C(=O)N2C[C@H]3C[C@H](O)[C@H](O)C[C@H]3C2)n(C)n1	6.8	5.1
O=C(Cc1ccccc1F)Nn1cnc2sc3c(c2c1=O)CCCC3	4.1	0.7
COc1cccc(C(=O)N2CCSC23CCN(C(=O)c2ccc(C(C)(C)C)cc2)CC3)c1	-0.8	10.1
COc1cc(-c2nc3ccccc3c(=O)n2Cc2ccc3c(c2)OCO3)cc(OC)c1OC	4.8	-0.3
CCCCN(CC(=O)N(CCc1c[nH]c2ccccc12)Cc1ccc(Cl)c(Cl)c1)C(=O)c1cccc(F)c1	7.1	18.5
COc1ccc(C2=NN(C(=O)CN3CCCCC3C)C(c3cccc(F)c3)C2)cc1 (stereo not drawn)	-9.2	9.2
O=C(NC1CCN(c2ccccc2C(=O)N2CCN(c3ccccn3)CC2)CC1)c1ccccc1Cl	-2.3	7.4
Clc1ccc(Nc2c(-c3ccccn3)nc3cnccn23)cc1	2.0	-1.9
COc1ccc(N2C(=O)CSC2c2ccc(NC(=O)C(C)C)cc2)c(OC)c1 (stereo not drawn)	-1.3	9.4
COc1ccc(C)cc1CC(=O)NN1C(=O)NC2(CCCCC2)C1=O	0.8	5.7
CC(OC(=O)CN1C(=O)NC2(CCCCC2C)C1=O)C(=O)Nc1ccnn1C(C)C (stereo not drawn)	0.2	0.9
O=C(Nc1sc2c(c1C(=O)Nc1ccc(Cl)cc1)CCCC2)c1ccccc1Cl	2.7	10.5
CC(=O)Nc1c(-c2cc(=O)oc3cc(C)cc(C)c23)oc2ccccc12	-3.6	-8.2
CCn1c(SC(C)C(=O)NCc2ccc(Cl)cc2)nnc1C1CC1 (stereo not drawn)	3.9	0.1
CC(C)CN(CC(=O)N(CCc1c[nH]c2ccccc12)Cc1ccc(Cl)c(Cl)c1)C(=O)C1CCC1	-0.1	5.0
COCCNC(=O)c1csc(COc2ccc([N+](=O)[O-])cc2)n1	2.2	9.3
O=[N+]([O-])c1cccc(S(=O)(=O)N2CCN(CCCOC(c3ccc(Cl)cc3)c3ccc(Cl)cc3)CC2)c1	-2.2	6.6
CC(=O)OC1CCC2(O)CC1(C)CCC1C2CC1(C)C (stereo not drawn)	-7.2	-14.7
CC(C)(C)C(NS(=O)(=O)c1ccc(F)cc1Cl)c1cccs1 (stereo not drawn)	-1.5	-1.5
O=C(Cc1ccc(F)cc1)Nc1c(-c2ccc(F)c(F)c2)nc2ccccn12	-1.1	0.6
CC1CCN(C(=O)CN2CCCCC2)CC1	-4.4	-10.3
CCCc1c(O)nc(SCCN2CCOCC2)n(-c2ccccc2)c1=O	4.5	4.2
CC(C)C1CN(c2ccnc3ccccc23)CCC(=O)N1CC1CC1 (stereo not drawn)	5.5	0.3
O=C(Cn1cnnn1)NCC1CCCN(Cc2ccccc2F)C1 (stereo not drawn)	29.3	12.3
Cc1ccc(-n2nnnc2CNC(=O)Nc2cccs2)cc1C	3.4	2.4
CCN(CC)Cc1ccccc1Sc1ccccc1	-0.7	-2.9
O=C(c1cc(C2CC2)[nH]n1)N(CC1CCN(C2Cc3ccccc3C2)CC1)CC1CCCO1 (stereo not drawn)	-3.7	-6.5
COc1cccc2c1OCC(NCc1ccc(C)o1)C2 (stereo not drawn)	19.9	12.3
Cc1cc(Oc2cnn(C)c(=O)c2Nc2ccc(C(=O)NCc3ccccc3)cc2)ccc1Cl	11.0	12.3

Compound profiles, as listed above. Screens in order: NPYLR7 ag	NPYLR7 ag max-min
CCCc1c(O)nc(SCCN2CCOCC2)n(-c2ccccc2)c1=O is entered as 4.5	4.2
CC1CCN(C(=O)CN2CCCCC2)CC1 is entered as -4.4	-10.3
CCN(CC)Cc1ccccc1Sc1ccccc1 is entered as -0.7	-2.9
COc1cccc2c1OCC(NCc1ccc(C)o1)C2 (stereo not drawn) is entered as 19.9	12.3
Cc1cc(Oc2cnn(C)c(=O)c2Nc2ccc(C(=O)NCc3ccccc3)cc2)ccc1Cl is entered as 11.0	12.3

(further entries)
SMILES	NPYLR7 ag	NPYLR7 ag max-min
Cc1cccc(COC2CCCN(C(=O)c3ccccc3C)C2)c1 (stereo not drawn)	5.0	11.8
CC1(C(=O)NS(=O)(=O)c2ccc(Cl)s2)CCN1C(=O)CC1CCCC1 (stereo not drawn)	8.3	4.9
N#Cc1c(NC(=O)CN2C(=O)C3CC=C(Cl)CC3C2=O)sc2c1CCC2 (stereo not drawn)	-12.6	-18.4
COc1cccc(C(=O)N2CCN(CC(OCc3ccc(C)cc3)c3cccc(OC)c3)CC2)c1 (stereo not drawn)	-0.9	1.6
COc1ccc(Cl)cc1C(=O)NCCNc1cc(-n2cccn2)nc(C)n1	-6.9	-8.7
CCN1C(=S)NC(c2ccc(NC(=O)Nc3ccc(OC)cc3)cc2)C(C(=O)OC)=C1C (stereo not drawn)	8.8	4.0
COc1ccc2c(c1OC)C(=O)OC2Nc1nccs1 (stereo not drawn)	3.6	2.5
C[C@@H](NC(=O)c1cccnc1Nc1cccc(C(F)(F)F)c1)C(C)(C)C	-12.1	-15.9
CCCCNC(=O)N(CCCOC)CC(=O)N1CCc2sccc2C1c1ccccc1 (stereo not drawn)	10.6	9.4
COc1ccccc1N1CCN(c2ccc(NC(=O)Nc3ccc(Cl)c(Cl)c3)cc2C(=O)NC(C)C)CC1	-5.0	5.8
Cc1cc2c(N=Nc3ccccc3[N+](=O)[O-])c(O)[nH]c2cc1Br	-3.7	-8.0
Cn1c(=O)n(Cc2ccc(Br)cc2)c(=O)c2c1nc1n2CCCN1CCc1ccccc1	8.9	7.3
CC(=O)N1CCN(c2ccccc2Cl)C(=O)C1C (stereo not drawn)	-9.5	-4.2
N#CCCN(Cc1ccco1)C(=O)CN=C1NS(=O)(=O)c2ccccc21	1.6	-1.0
Cc1nc(C)c(CN2CCC(C(=O)Nc3cccc(-c4ccco4)c3)CC2)nc1C	-6.7	-5.9
CC(C)c1csc(CNC2CC(C)(C)Cc3c2cnn3-c2ccc(F)cc2)n1 (stereo not drawn)	3.8	3.8
CC(=O)NCc1cccnc1N(C)Cc1ccccc1	13.5	1.1
CCN(CC)C(=O)c1sc2nc(-c3ccccn3)[nH]c(=O)c2c1C	-2.1	-5.6
CNC(=O)NC(=O)Cn1ncc(Cl)c(Cl)c1=O	-0.3	6.8
O=C(c1ccccc1F)N(Cc1csc(COc2cccc3ccccc23)n1)C1CC1	19.0	21.5
Clc1ccc(NN=Cc2ccccn2)cc1Cl	2.7	-0.1
COC(=O)CCn1c(=O)c2c(nc3n(CCc4ccccc4)c(C)c(C)n23)n(C)c1=O	-4.2	-7.6
CCc1nc2ccc(C(=O)NCCOc3ccc(OC)cc3)cn2c1N(C=O)Cc1ccc(OC)cc1	1.3	28.8
CCc1nc2ccc(C(=O)NCCN3CCOCC3)cn2c1N(CC)CC(=O)N(C)C	11.2	15.1
COc1ccc(N2CCN(C(=O)c3nn(-c4ccccc4C)c(=O)cc3OC)CC2)cc1	0.5	0.1
Cc1noc(C)c1C(=O)Nc1cccc(OCC2CCCO2)c1 (stereo not drawn)	-21.5	-22.7
CC(=O)O[C@H]1C[C@@]2(C)[C@@H](C[C@@H](O)C3[C@]2(C)CC[C@H]2[C@H](C)[C@H](O)CC[C@]32C)/C1=C(/CCC=C(C)C)C(=O)O (stereo partly drawn)	-3.0&-1.9	-1.3&-5.2
c1ccc(OCCCSc2n[nH]c3nc4ccccc4n23)cc1	1.8	8.3
Cc1cc(N2CCN(Cc3c(F)cccc3Cl)CC2)n2ncnc2n1	11.4	6.8
COCc1nc(C)nc(N2CCN(C(=O)c3ccc(C)c([N+](=O)[O-])c3)CC2)c1Cc1ccc(OC)cc1	0.8	3.9
Cc1ccc(N=c2c([N+](=O)[O-])nn(-c3ccc(Cl)cc3)n2O)cc1Br	-2.3	-3.5
N#Cc1c(N)nc(SCc2ccc(Cl)cc2)c(C#N)c1-c1ccc(Br)cc1	4.2&6.8	3.7&5.7
Cn1ccn2ncc(C(=O)N3Cc4ccccc4CC3C(N)=O)c12 (stereo not drawn)	19.1	10.1
CCOCCCN(CC(=O)N(CCc1ccc(OC)c(OC)c1)Cc1ccc(C)s1)C(=O)c1ccccc1C	7.3	11.6
COc1ccc(Nc2nc(N3CCN(c4ccc(F)cc4)CC3)nc3nccnc23)cc1	1.3	6.6
C#CCOCC(O)CN(CCN1CCOCC1)Cc1ccsc1 (stereo not drawn)	22.2	28.4
CN(C1CC1)S(=O)(=O)c1ccc(NC(=O)N2CCOCC2)cc1	-2.1	-1.6
CCC(=O)Nc1ccccc1-c1nc2cc(Cl)ccc2o1	29.4	26.6
O=C(c1cc(-c2csc(-c3cccs3)n2)c[nH]1)N1CCCC1	0.0	7.5
CCN1C(=O)N(CCCc2cccnc2)C(=O)C12CCN(CCC1=C(C)CCCC1(C)C)CC2	11.8	-0.2
CCCCCCc1ccc(C(=O)N(CCOC)CC(=O)N(CCc2c[nH]c3ccccc23)Cc2ccccc2OC)cc1	2.3	10.5
Cc1ccc(N2CCCC(Nc3ccc4c(c3)CC(=O)N4)C2=O)cc1 (stereo not drawn)	-4.0	-5.8
COc1cccc(-c2cc(C(=O)O)nc3c(-c4ccccc4)c(C)nn23)c1	-6.8	-2.8
Cc1cccc(S(=O)(=O)N2CCN(c3ncccn3)CC2)c1	-4.7	9.8
COc1ccc(CCNc2nnc(Cc3ccccc3)c(=O)[nH]2)cc1OC	-1.3	-2.1
O=[N+]([O-])c1ccccc1C1c2cccn2CCCN1Cc1ccc(Cl)cc1 (stereo not drawn)	13.3	18.7
CCCCC1CCC(C(=O)Nc2nnc(SCC(=O)Nc3nccs3)s2)CC1 (stereo not drawn)	-9.5	-14.1
Cc1cc2cc(C(=O)N3CCCC(Nc4ccc(F)cc4)C3)ccc2o1 (stereo not drawn)	17.1&-1.9	6.2&-3.6
CCOc1ncccc1CNC(=O)c1ccc(C)c(N2CCNC2=O)c1	-7.1	-10.5
C#CCN(C(C)=O)c1ccc(C#N)cc1	5.8	2.5
CN1CCN(c2ncccc2CNC(=O)c2nc3ccccc3[nH]c2=O)CC1	3.5	-2.6
CCC/C=C/c1nc2ccccc2n1CCO	4.2	2.4

These rows are one share of the data; rates above refer to the full screens.
